SARS PLP yeast = blocks SARS-CoV papain-like protease in a yeast assay; S. cerevisiae expressing SARS-CoV PLpro, growth rescue; control for the full effect not named in the record; Potency, µM (series often up to 32.9 µM), for the others: at the highest dose activity, positive = growth rescue; 330,000 tested, 0.19% active; AID 485353; active means well fitted rising curve with a large enough effect; inconclusive means small, poorly fitted or top-dose-only effect; inactive means no such curve, though single readings can be large or run the other way; also: 0% is about no effect; nearly all actives have a fitted effect of over 55% in size; growth read by luminescence after 48 h
Cruzain inh Det = cruzain (T. cruzi) inhibition with detergent; Potency, µM, for inactives: max response, negative = inhibition, actives largely listed as inhibitors; purified cruzain, Z-FR-AMC fluorescence, 0.01% Triton; AID 1478; 200,000 tested, 0.43% active; P25779;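 also: plate controls were neutral wells for no effect and buffer without enzyme for full effect; nearly all actives have a fitted effect of over 40% in size; top concentration of the series not given in the record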
Target sequence (P25779 123-467 limits assumed): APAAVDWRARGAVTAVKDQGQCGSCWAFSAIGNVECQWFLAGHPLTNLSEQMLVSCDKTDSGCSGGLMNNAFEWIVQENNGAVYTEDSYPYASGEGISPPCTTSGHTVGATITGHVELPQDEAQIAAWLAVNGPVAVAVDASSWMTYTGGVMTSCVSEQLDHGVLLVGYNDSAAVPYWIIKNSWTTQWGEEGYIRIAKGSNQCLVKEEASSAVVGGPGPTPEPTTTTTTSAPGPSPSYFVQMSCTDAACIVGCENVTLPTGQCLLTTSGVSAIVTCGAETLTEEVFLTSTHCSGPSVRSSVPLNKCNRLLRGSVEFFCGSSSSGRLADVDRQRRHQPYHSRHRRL
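Detergent-containing arm of a paired screen for aggregation-based inhibition: 0.01% Triton X-100 present. Cruzain at 1.5 nM cleaved 2 uM Z-FR-AMC at pH 5.5 with 5 mM DTT; AMC fluorescence gain over 60 s measured activity.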
Marburg entry inh = Marburg virus entry inhibition; Marburg virus pseudotyped entry inhibition, cell reporter; control for the full effect not named in the record; about a third of the inactives were read at about 46 µM; Potency, µM (series often up to 37.8 µM), without a hit: at the highest dose activity change, negative = inhibition, hits mostly inhibitors; 300,000 tested, 1.8% active; active = well fitted inhibition curve with a large enough effect; inconclusive = small, poorly fitted or top-dose-only effect, or effect the other way; inactive = flat fitted curve, though single readings scatter; tested in HEK293 cells; about a fifth of its hits are not listed in these tables; also: % is scaled to controls: 0 for no effect and ±100 for the full control effect; luciferase read-out
Lassa entry inh = Lassa virus entry inhibition; Lassa virus pseudotype entry inhibition, cell reporter; control for the full effect not named in the record; Potency, µM (doses to about 37.9 µM), for the others: at the top dose activity change, negative = inhibition, actives largely listed as inhibitors; 300,000 tested, 1.2% active; AID 540256; active means well fitted inhibition curve with a large enough effect; inconclusive means small, poorly fitted or top-dose-only effect, or effect the other way; inactive means flat fitted curve, though single readings scatter; tested in HEK293 cells; also: % is scaled to controls: 0 for no effect and ±100 for the full control effect; nearly all actives have a fitted effect of over 50% in size; luciferase read-out
RE007 growth inh = less growth of the S. pombe RE007 Vpr strain; S. pombe RE007 Vpr strain, BacTiter-Glo ATP luminescence, 24 h; control for the full effect not named in the record; Potency, µM (titrated, usually from 92.2 µM), for the others: at the top dose activity change, negative = less growth; 360,000 tested, 0.21% active; AID 651644; active = well fitted falling curve with a large enough effect; inconclusive = small, poorly fitted or top-dose-only effect; inactive = no such curve, though single readings can be large or run the other way;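 also: % is scaled to controls: 0 for no effect and ±100 for the full control effect; nearly all actives have a fitted effect of over 50% in size; the assay follows cell death caused by Vpr and the record does not say whether a fall means rescue or toxicity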
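Fission yeast RE007 carrying one integrated HIV-1 vpr copy, seeded at OD 0.01 in PMG+AL medium with 23 nL pinned compound. Grown 24 h at 30 degrees; viability read by BacTiter-Glo luminescence after 5 min.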
Cruzain inh noDet = cruzain (T. cruzi) inhibition without detergent | AID 1476 | Potency, µM, for the others: max response, negative = inhibition, hits mostly inhibitors | P25779 | 200,000 tested, 2.3% active | purified cruzain, Z-FR-AMC fluorescence, no detergent;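 also: plate controls were enzyme without inhibitor for no effect and buffer without enzyme for full effect; nearly all actives have a fitted effect of over 40% in size; top concentration of the series not given in the record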
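Detergent-free condition (0.00005% Triton X-100) in acetate buffer pH 5.5 with DTT. 1.5 nM enzyme and compound were pre-mixed 15 min, then 2 uM Z-FR-AMC substrate added; reaction progress from fluorescence change between first and third reads (60 s).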
NS1 function inh = blocks influenza NS1 protein function. Potency, µM (titrated, usually from 46.1 µM), without a hit: at the top dose activity, positive = more growth. 270,000 tested, 0.4% active. S. cerevisiae slowed by influenza A NS1, growth recovery by OD600; active means well fitted rising curve with a large enough effect; inconclusive means small, poorly fitted or top-dose-only effect; inactive means no such curve, though single readings can be large or run the other way; also: nearly all actives have a fitted effect of over 50% in size
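Growth recovery, yeast-based: influenza A NS1 expressed in S. cerevisiae causes slow growth, and suppressors are detected by OD600. The parent strain without NS1 is used as positive control.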
2A StopGo = FMDV 2A StopGo reporter, luciferase signal. human cells with a luciferase reporter of 2A StopGo recoding; control for the full effect not named in the record. Potency, µM (doses to about 57.9 µM), without a hit: at the highest dose signal change, negative = less light. 410,000 tested, 1.2% active. AID 1159524; active = well fitted falling curve with a large enough effect; inconclusive = small, poorly fitted or top-dose-only effect; inactive = no such curve, though single readings can be large or run the other way; tested in HEK293T cells; also: % is scaled to controls: 0 for no effect and ±100 for the full control effect; nearly all actives have a fitted effect of over 45% in size; luciferase light after 4 h
An asterisk follows results filed as active; u = inconclusive; x = not tested or not shown; [ ] = another dose, or the depositor's remark. Unless noted, calls follow the shape of the dose curve; as a rule, active = well fitted curve in the direction sought with a large enough effect; inconclusive = small, poorly fitted or top-dose-only effect, or another doubt; inactive = no such curve, though single readings can be large; an effect the other way counts as inactive or inconclusive. Potency is read from the fitted curve at half-maximal effect. Random draw from the library, and some 4.7% of all compounds hit somewhere here.

SMILES	SARS PLP yeast	Cruzain inh Det	Marburg entry inh	Lassa entry inh	RE007 growth inh	Cruzain inh noDet	NS1 function inh	2A StopGo
O=c1[nH]c(=O)n(Cc2ccco2)c2c1C(C(F)(F)F)(C(F)(F)F)N=C(CCc1ccccc1)N2	1.2%	0.0%	u	-20.9%	19.3%	-4.0%	4.1%	-23.6%
COc1ccc(-c2csc(NC(=O)C3CCN(c4ncnc5sc(C)c(C)c45)CC3)n2)cc1OC	2.1%	x	3.98µM*	2µM*	20.0%	x	x	8.91µM*
O=Cc1c(Cl)nc2ccccn2c1=O	1.3%	x	u	u	3.0%	x	5.6%	-19.1%
COc1ccc(C(=O)NCc2ccc3c(c2)OCO3)c(OC)c1	-5.1%	x	4.5%	-1.5%	7.6%	x	-44.2%	27.0%
C=CCn1c(SCC(=O)Nc2ccccc2)nc2scc(-c3cccs3)c2c1=O	-0.2%	-6.1%	-23.0%[46.1 µM]	-8.2%	19.1%	25.1µM*	-4.9%	4.0%
CCN(CC)C(=O)CSc1ncnc2sc(-c3ccccc3)cc12	-16.3%	-16.1%	u	-0.5%	25.6%[3.69 µM]	u	-4.2%	-40.3%
Nc1nonc1C(=O)N/N=C\c1cc2c(cc1Cl)OCO2	-6.9%	x	x	x	-9.9%	x	6.2%	62.7%[activator]
O=C(NCCCN1CCOCC1)C(=O)N/N=C/c1ccccc1	16.1%	-3.6%	3.2%	1.3%	20.0%	0.3%	4.4%	-22.5%
Clc1ccccc1/C=C/C=N/Nc1nc(N2CCOCC2)nc(N2CCOCC2)n1	-7.6%	x	u	u	-8.6%	x	x	-28.8%
Cc1ccccc1Cn1c(=O)n(CCCC(=O)NCc2ccco2)c(=O)c2ccccc21	-11.5%	-0.6%	-19.0%	-23.0%	0.0%	-3.5%	-0.6%	u
N#C/C(=C/c1ccc(C(=O)O)cc1)C(=O)NCc1ccccc1	-1.8%	-0.1%	-2.0%	7.7%	0.6%	-0.2%	4.2%	-7.0%
O=[N+]([O-])c1ccc([C@H](O)[C@H](CO)N=Cc2ccccc2O)cc1	-1.9%	2.6%	19.0%	-6.4%	0.3%	-4.3%	2.6%	-10.9%
CCOc1ccc(C(=O)Nc2ccc(C(F)(F)F)n(C)c2=O)cc1	15.2%	0.3%	4.4%[46.1 µM]	-0.4%[46.1 µM]	-2.1%	-5.2%	2.5%	11.4%
CC(C)CNC(=O)c1cc2nc3c(c(C(F)(F)F)n2n1)CCc1ccccc1-3	3.9%	3.1%	9.4%	1.5%	4.4%	-6.8%	-2.7%	3.6%
Cc1cccc(CSc2nc(-c3cccs3)ccc2C#N)c1	x	-2.5%	-15.1%[46.1 µM]	u	x	u	x	1.7%
COc1cc(NC(=O)c2ccccc2)c(OC)cc1NC(=O)CSc1[nH]c(=O)cc(C)c1C#N	-1.5%	x	u	u	8.6%	x	1.0%	-3.8%
COc1ccc(-c2cc(C(=O)Nc3ccc(S(=O)(=O)Nc4onc(C)c4C)cc3)c3ccccc3n2)cc1OC	1.3%	x	x	x	15.3%	x	-8.2%	-11.2%
COc1ccc2oc(C(=O)N(Cc3ccco3)Cc3cccs3)c(C)c2c1	-11.7%	x	2.9%	u	-15.3%	x	x	0.7%
CC(C)NC(=O)C1CCN(C2CCN(Cc3cn[nH]c3-c3ccccc3)CC2)CC1	0.4%	x	-2.7%[46.1 µM]	-11.5%[46.1 µM]	-2.9%	x	x	-3.9%
Cc1onc(-c2ccccc2Cl)c1C(=O)NCc1cccs1	17.2%	1.0%	7.5%	9.9%	-13.9%	2.2%	u	-14.3%
COC(=O)C1=C(C)N(C)C(=O)/C1=C\c1ccco1	4.0%	-3.9%	18.1%	18.8%	-9.7%	3.3%	-3.7%	-14.3%
CCOc1ccc(N2C(=O)C3Sc4[nH]c(=O)sc4C(c4ccc(OC)c(OC)c4)C3C2=O)cc1 (stereo not drawn)	0.2%	x	0.0%[46.1 µM]	u	1.4%	x	15.3%	-22.1%
Nc1nc(-c2ccc(-c3ccccc3)cc2)cs1	-28.4%	x	u	-27.0%[46.1 µM]	u	x	21.8%	9.2%
O=S(=O)(Cc1ccc(Cl)cc1)Nc1ccc2c(c1)OCO2	2.5%	4.8%	0.3%	4.3%	-9.4%	12.4%	-15.0%	x
CN1CCC(N(C)S(=O)(=O)c2ccc(NC(=O)COc3ccc(F)cc3)cc2)CC1	-0.9%	x	u	5.0%	1.2%	x	x	-24.6%
O=C(NC(=O)c1ccc(F)cc1)Nc1ccc(-c2cc(C(F)(F)F)nn2-c2ccccc2)cc1	x	-0.2%	7.1%[46.1 µM]	-21.6%[46.1 µM]	x	-13.6%	x	u
N#C/C(=C\c1ccccc1)C(=O)NC1CC1	-4.1%	x	x	x	-22.6%	x	-0.4%	1.9%
CC(=O)Nc1ccc(S(=O)(=O)N2CCC(c3nc4c(nnn4Cc4ccccc4Cl)c(=O)[nH]3)CC2)cc1	3.0%	x	3.2%[46.1 µM]	16.7%[46.1 µM]	-4.3%	x	-7.0%	-9.8%
COc1ccccc1NC(=O)C(C)N(C)CC(=O)Nc1cccc2ccccc12 (stereo not drawn)	4.3%	x	21.8%	5.2%	-8.5%	x	x	u
CCCCOc1ccc(N2C(=O)CC(NCCc3ccc(S(N)(=O)=O)cc3)C2=O)cc1 (stereo not drawn)	-17.6%	0.0%	-6.4%	-5.8%	63.1µM*	-28.3%	-0.8%	13.6%
CCOc1ccc(N(CC(=O)NC(C(C)C)C(C)C)S(=O)(=O)c2ccc(OC)c(OC)c2)cc1	0.3%	x	x	x	10.6%	x	-3.5%	-7.7%
CN1CCN(c2ccccc2NC(=O)c2ccccc2F)CC1	0.3%	x	x	x	3.4%	x	-2.5%	-17.0%
O=C1Cn2c(nc3ccccc32)-c2ccccc2N1	0.4%	2.5%	14.6%	12.2%	-0.4%	-10.0%	-16.4%	x
CCN(C(=O)Cc1ccc(Br)cc1)C1CCCCC1	x	-1.4%	u	6.2%	-6.4%	7.2%	-57.7%	-20.8%
COc1ccc(N(C)S(=O)(=O)c2cccc(C(=O)Nc3ccc(-n4cnnn4)cc3)c2)cc1	0.3%	-1.6%	u	-17.2%	-6.9%	u	-19.7%	39.8µM*
CCCc1cc(=O)oc2cc(C)cc(OCC(=O)Nc3ccc(S(N)(=O)=O)cc3)c12	15.7%	x	x	x	4.1%	x	10.1%	-19.4%
CCC(CC)c1nnc(NC(=O)c2cc(C(=O)OC)cc([N+](=O)[O-])c2)s1	14.6%	-9.1%	-10.0%	7.6%	2.8%	-10.3%	6.7%	-27.8%
CCCNC(=S)N1CCC(C(=O)c2ccc(OC)cc2)CC1	-9.6%	3.9%	-0.9%[46.1 µM]	1.9%	-10.2%	-8.1%	4.2%	-4.2%
O=C(NCC1(N2CCCCC2)CCCCC1)c1cccc(NS(=O)(=O)c2ccccc2)c1	-3.8%	x	u	23.1%	3.9%	x	x	-13.9%
Cc1occc1-c1nnc(SCC(=O)NCCc2ccccc2)n1Cc1ccccc1	9.2%	-1.5%	-9.2%	u	-3.6%	u	-8.6%	-12.6%
O=C(NCc1ccc(Cl)cc1)c1cc2ccccn2n1	-7.3%	-1.5%	x	x	7.3%	2.2%	-16.6%	-14.0%
COc1cc(CN2CCNC(=O)C2CC(=O)N2CCc3ccccc3C2)cc(OC)c1 (stereo not drawn)	2.0%	x	x	x	-22.8%	x	2.3%	-2.4%
CN1CCN(CC(=O)N2N=C(c3cccs3)CC2c2ccco2)CC1 (stereo not drawn)	-2.4%	-1.5%	-1.8%	u	-1.1%	-5.5%	24.9%	-6.9%
CCn1c2c(c(=O)n3ncc(C(=O)N4CCN(c5ccc(Cl)cc5)CC4)c13)CN(Cc1ccc(OC)cc1)CC2	x	-6.7%	x	u	x	u	x	u
CCn1nnc2cc(C(=O)N3CCC(C(=O)OC)CC3)ccc21	14.9%	x	15.8%[46.1 µM]	5.2%[46.1 µM]	-12.6%	x	x	-0.7%
Cc1ccc(Nc2nc(NCC3CCCO3)nc(N)c2[N+](=O)[O-])cc1C (stereo not drawn)	-2.5%	-2.7%	u	5.4%	-0.3%	8.1%	-1.1%	-12.2%
CC(NC(=O)C1CC2CCCC(C1)C2=O)c1ccccc1 (stereo not drawn)	5.3%	2.1%	u	13.2%	0.8%	2.7%	19.1%	-13.0%
C/C(Cl)=C\Cn1c(O)c(N=NC(N)=S)c2cc(Br)ccc21	-4.2%	x	x	x	0.3%	x	-0.4%	u
COc1cccc(C(C)NC(=O)C2CCCC2)c1 (stereo not drawn)	-2.8%	x	x	x	2.1%	x	15.7%	0.4%
Cc1cc(C)n2c(SCc3ccccc3Cl)nnc2n1	-15.3%	1.7%	0.8%	24.0%	-2.7%	9.3%	-131.3%	28.0%
COCC(=O)OCC(=O)c1cc(C)n(-c2ccc(Br)cc2)c1C	-8.8%	x	-4.5%[46.1 µM]	-23.0%	2.7%	x	-3.2%	-7.9%
CCc1ccccc1NC(=S)N1N=CCC1c1ccccc1 (stereo not drawn)	-0.4%	x	u	0.2%	-2.1%	x	-4.7%	53.5%[activator]
C=CCSc1ncccc1C(=O)NCc1ccc(C)cc1	-1.5%	-4.0%	2.8%	-7.9%	-3.2%	-0.5%	-5.5%	-4.7%
Cc1cc2c(cc1S(=O)(=O)N1CCN(c3ccc(Cl)cc3)CC1)OCCN2C	0.891µM*	x	x	x	-0.1%	x	6.6%	12.1%
CCS(=O)(=O)N1CCc2cc(C(=O)NCc3ccccc3)ccc21	x	-3.3%	5.2%[46.1 µM]	-0.2%[46.1 µM]	x	-9.8%	x	17.2%
Cc1c(C(=O)OCC(=O)N2CCCC2)cccc1[N+](=O)[O-]	-13.9%	x	u	-8.1%[46.1 µM]	27.6%	x	-0.1%	24.5%
CCOc1ccccc1CN1CCN(Cc2ccc(C)o2)CC1CCO (stereo not drawn)	5.3%	x	x	x	-14.2%	x	-1.2%	3.7%
CCC(CC)NC(=O)C1CCN(S(=O)(=O)c2cccs2)CC1	-7.8%	-0.2%	6.2%	1.8%	19.2%	6.7%	5.6%	5.6%
